Bioassay records (PubChem BioAssay)
VDR inh – inhibitors of human vitamin D receptor; P11473; VDR-SRC2-3 peptide fluorescence polarization, 2 h; Potency, µM, inactives show max response, negative = inhibition, hits mostly inhibitors; 400,000 tested, 0.93% active; AID 504847; active means well fitted inhibition curve with a large enough effect; inconclusive means small, poorly fitted or top-dose-only effect, or another doubt; inactive means no such curve, though single readings can be large or run the other way; further: series mostly up to about 120 µM
Target sequence (P11473 whole entry, looked up): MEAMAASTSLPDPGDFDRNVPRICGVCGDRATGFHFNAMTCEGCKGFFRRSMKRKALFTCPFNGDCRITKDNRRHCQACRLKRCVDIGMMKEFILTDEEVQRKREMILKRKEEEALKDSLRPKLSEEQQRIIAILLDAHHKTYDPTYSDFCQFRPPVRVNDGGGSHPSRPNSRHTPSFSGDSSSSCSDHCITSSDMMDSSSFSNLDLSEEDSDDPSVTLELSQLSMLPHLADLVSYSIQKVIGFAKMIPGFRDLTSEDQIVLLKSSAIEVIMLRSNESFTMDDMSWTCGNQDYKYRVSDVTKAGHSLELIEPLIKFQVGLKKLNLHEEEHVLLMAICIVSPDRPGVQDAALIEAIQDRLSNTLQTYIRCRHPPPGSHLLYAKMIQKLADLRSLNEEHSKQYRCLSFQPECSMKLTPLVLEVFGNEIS
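VDR–SRC2-3 interaction, FP format. Cmpds 23 nl via pintool, brief spin, 2 h ambient incubation.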
The depositor's hits bear a star; ? = inconclusive; & = joins results of further samples. On the % scale 0 is the no-effect control and ±100 the full control effect; potency means the concentration at half of the fitted maximal effect. A portion of the library (hit frequency here may not be typical).

CN(C)S(=O)(=O)c1cc(NC(=O)COC(=O)CCSc2ccc(Cl)cc2)ccc1Cl
  VDR inh: 3%
CC(C)c1ccc(OCC(=O)NCc2ccco2)cc1
  VDR inh: 24%
CCOC(=O)/C=C/C(=O)Nc1nccs1
  VDR inh: -26%
COc1ccccc1NC(=O)c1ccc(S(=O)(=O)N(C)c2ccccc2OC)cc1
  VDR inh: 9%
O=C(NCCc1ccccc1)C1CCN(C(=O)c2ccc([N+](=O)[O-])cc2)CC1
  VDR inh: -3%
NS(=O)(=O)c1ccc(NC(=S)NC2CC2)cc1
  VDR inh: -4%
Cc1ccc(CC(=O)NCc2nc(-c3cccc(C)c3)no2)cc1
  VDR inh: 19%
CCOC(=O)c1ccc(Oc2c(C)oc3c(CN4CCN(C)CC4)c(O)ccc3c2=O)cc1
  VDR inh: 9%
COc1cc(S(=O)(=O)NCc2ccccn2)ccc1Cl
  VDR inh: ?
Nc1cc2nn(-c3ccccc3)nc2cc1Cl
  VDR inh: -18%
O=Cc1ccc(-c2ccccc2OC(F)(F)F)o1
  VDR inh: 3%
CCN(Cc1ccncc1)C(=O)C(CO)c1ccccc1 (stereo unspecified)
  VDR inh: -7%&-14%&-1%
CC(=O)c1nn(-c2cccc(Br)c2)cc1C(=O)c1ccco1
  VDR inh: -3%
O=C(Cn1c(=O)cnc2ccccc21)Nc1ccccc1N1CCOCC1
  VDR inh: 8%
O=S(=O)(N/N=C1\CC(c2ccccc2)Oc2ccccc21)c1ccccc1 (stereo unspecified)
  VDR inh: -4%
O=C(NCc1ccccc1F)C1CCCN(C(=O)Nc2ccc(F)cc2)C1 (stereo unspecified)
  VDR inh: -3%
COc1cc(NC(=O)c2cc([N+](=O)[O-])ccc2NC(=O)CN2CCN(c3ccccn3)CC2)cc(OC)c1
  VDR inh: 0%
COc1ccc(/C=N/NC(=O)c2ccc(COc3ccccc3Cl)o2)c(OC)c1C
  VDR inh: -7%
COC(=O)COc1ccc(Oc2nc(SC)nc(N(C)C)n2)nn1
  VDR inh: 7%
O=C1OCCC1Sc1nc2ccccc2c(=O)n1-c1ccc(F)cc1 (stereo unspecified)
  VDR inh: -20%
C=CCN1CCCC1CNC(=O)c1cc(S(N)(=O)=O)cc(OC)c1OC (stereo unspecified)
  VDR inh: -3%
COc1ccc(NC2CCCN(C(=O)c3ccc4nccnc4c3)C2)cc1OC (stereo unspecified)
  VDR inh: 9%
Cc1ccccc1C(=O)N1CCC(C(=O)NCCc2ccc(S(N)(=O)=O)cc2)CC1
  VDR inh: 24%
Cc1c(N=Cc2ccc(-c3ccc(Cl)cc3)o2)c(=O)n(-c2ccccc2)n1C
  VDR inh: -12%
Fc1ccc(Oc2ccc3nnc(C(F)(F)F)n3n2)cc1
  VDR inh: -4%

COc1ccc(C(C(=O)NC2CCCC2)N(C(=O)CNC(=O)c2ccco2)c2cccnc2)cc1 (stereo unspecified)
  VDR inh: 2%
CCCN1C(=O)C(NC(C)=O)c2cc(OC)ccc21 (stereo unspecified)
  VDR inh: -11%
CCCOc1ccc(Cl)cc1CN1CCOCC1
  VDR inh: -5%
CC(=O)c1ccc(S(=O)(=O)N2CCN(C(=O)CCC3CCCC3)CC2)cc1
  VDR inh: 3%
CCCC(CNC(=O)COC(=O)C1=NNC(=O)CC1)c1ccc(Cl)cc1Cl (stereo unspecified)
  VDR inh: -26%
COC(=O)c1c(C)oc2ccc(N(C(=O)c3ccncc3)S(=O)(=O)c3cc(C)c(C)cc3C)cc12
  VDR inh: 4%
O=C(Cn1cnc2c(nnn2Cc2ccc(F)cc2)c1=O)OCc1ccccc1
  VDR inh: -6%
CCCS(=O)(=O)Nc1cccc(-c2ccc3nnc(C)n3n2)c1
  VDR inh: -4%
Cc1ccc(C(=O)OCC(=O)N(C)C2CCS(=O)(=O)C2)cc1[N+](=O)[O-] (stereo unspecified)
  VDR inh: -6%
COc1ccc(Cn2c(=O)cc(N)n(-c3ccccc3C)c2=O)cc1
  VDR inh: 1%
Cc1sc2c(c1C)c(=O)n(-c1cccc(C(F)(F)F)c1)c(=O)n2CC(=O)NCc1ccco1
  VDR inh: -3%
CCN1CCN(c2nc(C)c3c(n2)CCCC3=O)CC1
  VDR inh: -7%
COCCCNc1nc2ccccc2nc1NS(=O)(=O)c1ccc(F)cc1
  VDR inh: -3%
C=CC[C@@H](Cc1ccc(F)cc1)C(=O)OC[C@H]1CCCN1C(=O)[C@@H](CC=C)CC(=O)N[C@H](CO)Cc1ccccc1
  VDR inh: -7%
CC1CCN(C(=O)COC(=O)C(C)N2C(=O)c3ccccc3C2=O)CC1 (stereo unspecified)
  VDR inh: 7%
COc1ccc(N2CCN(C(=O)NCc3ccc(OC)c(Cl)c3)CC2)cc1
  VDR inh: 2%
CSCCC(NS(=O)(=O)c1ccc(C)c(C(=O)O)c1)C(=O)O (stereo unspecified)
  VDR inh: 13%
N/C(=N\OC(=O)c1ccc([N+](=O)[O-])cc1)c1ccc(Br)cc1
  VDR inh: 3%
CCOc1ccc(NC(=O)C2CCN(c3nc4ccccc4[nH]3)CC2)cc1
  VDR inh: -3%
CCOC(=O)c1[nH]ncc1[C@@H]1C[C@H]2CN(Cc3cccc(Cl)c3)C(=O)[C@]23CCCN13
  VDR inh: 1%
COc1ccc(NC(=O)COC(=O)c2ccc3c(c2)OCO3)c(OC)c1
  VDR inh: -3%
CCOC(=O)C1CCCN(c2c(NCCc3ccc(C)cc3)c(=O)c2=O)C1 (stereo unspecified)
  VDR inh: 13%
CCCCCC(O)(c1ccc(OCC)cc1)C(CN1CCOCC1)c1ccccc1 (stereo unspecified)
  VDR inh: -4%
CCN(CC)S(=O)(=O)c1ccc(C(=O)OCC(=O)c2ccc3c(c2)NC(=O)CO3)cc1
  VDR inh: 1%
CCCCC(C(=O)O)C(C)CC(=O)Nc1nccs1 (stereo unspecified)
  VDR inh: -21%

Reformatted: results already given.
Structure | VDR inh
CCCC(CNC(=O)COC(=O)C1=NNC(=O)CC1)c1ccc(Cl)cc1Cl (stereo unspecified) | -26%
CC1CCN(C(=O)COC(=O)C(C)N2C(=O)c3ccccc3C2=O)CC1 (stereo unspecified) | 7%
Cc1sc2c(c1C)c(=O)n(-c1cccc(C(F)(F)F)c1)c(=O)n2CC(=O)NCc1ccco1 | -3%
COc1ccc(N2CCN(C(=O)NCc3ccc(OC)c(Cl)c3)CC2)cc1 | 2%

(more compounds)
COc1ccc(C2c3ccc(O)cc3Oc3ncn4nc(-c5ccccn5)nc4c32)cc1OC (stereo unspecified)
  VDR inh: 6%
COc1ccc(C2CC(=O)c3cc(-c4nc(-c5cccc([N+](=O)[O-])c5)cs4)c(=O)n(-c4cc(C)cc(C)c4)c3C2)cc1 (stereo unspecified)
  VDR inh: 6%
C=CCOc1ccc(/C=N/NC(=O)C(=O)N2CCCCCC2)cc1OC
  VDR inh: -6%
O=C(COc1ccc(Cl)cc1[N+](=O)[O-])N/N=C/c1cccs1
  VDR inh: ?
CC(C)[C@@H](CC(=O)N[C@@H]1CCNC[C@H]1C(=O)N[C@H](CC(=O)N[C@@H](CCC(=O)O)CC(=O)O)Cc1ccccc1)NC(=O)C[C@H](CO)NC(=O)[C@@H]1CCCC[C@H]1N
  VDR inh: 1%
CC1CCC(NC(=O)c2cccc(S(=O)(=O)N3CCN(c4ccc(F)cc4)CC3)c2)CC1 (stereo unspecified)
  VDR inh: -20%
Cc1ccc(-n2c(=O)c3ccc(C(=O)NCc4ccco4)cc3n(Cc3ccccc3C#N)c2=O)cc1
  VDR inh: 4%&-6%
Cn1c(=O)c2c(nc(NCc3cccnc3)n2Cc2ccccc2Cl)n(C)c1=O
  VDR inh: -6%
COc1ccc(NC(=S)N2CCCCCC2)cc1OC
  VDR inh: 4%
CCOc1ccc(NC(=O)CN(C)C(=O)c2cccnc2SC)cc1OCC
  VDR inh: -2%
O=C1[C@@H]2Cc3c([nH]c4ccccc34)C(c3cccc([N+](=O)[O-])c3)N2C(=O)CN1CCCO (stereo partly specified)
  VDR inh: -10%
COc1ccc(CCNC(=O)CC(c2ccccc2)c2cc(C)ccc2O)cc1OC (stereo unspecified)
  VDR inh: 28%
COc1ccc(-n2ncc3c(N4CCc5ccccc54)ncnc32)cc1
  VDR inh: 0%
CC12CCC(O)CC1=CCC1C2CCC2(C)C3=NN=CC3CC12 (stereo unspecified)
  VDR inh: 16%
Cc1cccc(N2CCN(C(=O)Cn3nc(Cc4cccnc4)c4ccccc4c3=O)CC2)c1C
  VDR inh: 3%
COc1ccc(NC(=O)CC2C(=O)N(CCc3ccccc3)C(=S)N2Cc2cccnc2)cc1 (stereo unspecified)
  VDR inh: -12%
CC1CCCCN1C(=O)c1ccc2c(c1)N(Cc1ccc(F)cc1)C(=O)c1ccccc1S2(=O)=O (stereo unspecified)
  VDR inh: -19%
Cc1ccc(C)c(NC(=O)CN(CCc2ccccc2)S(=O)(=O)c2ccccc2)c1
  VDR inh: -19%
CC(=O)N(c1ccccc1)c1nc(/C=C/C(=O)Nc2c(C)cc(C)cc2C)cs1
  VDR inh: 5%
COC(=O)c1sccc1NC(=O)C1CC1
  VDR inh: 7%
Cc1nnc(N(Cc2ccco2)C(=O)c2ccno2)s1
  VDR inh: -15%
Cc1cccc(S(=O)(=O)c2cn(Cc3ccccc3)c3cc(N4CCOCC4)c(F)cc3c2=O)c1
  VDR inh: 5%
Cc1cccc(N=C(NO)c2nonc2N)c1
  VDR inh: 6%
O=C(CN1C(=O)NC2(CCc3ccccc32)C1=O)c1c[nH]c2ccccc12 (stereo unspecified)
  VDR inh: 11%
O=C(/C=C/NCc1cccnc1)c1ccc(Br)cc1
  VDR inh: -8%

N#C/C(=C\c1ccccc1C(F)(F)F)C(=O)Nc1ccccc1
  VDR inh: ?
Cc1ccc(C)c(N2CCN(C(=O)C3CCCN(S(=O)(=O)c4ccc5c(c4)oc(=O)n5C)C3)CC2)c1 (stereo unspecified)
  VDR inh: 3%
Cn1c(=O)c2c(SCC(=O)Nc3nccs3)nc(C3CC3)nc2n(C)c1=O
  VDR inh: 18%
COc1ccc(-c2cc(C(C)=O)c(C)n2CCC(=O)Nc2ccc(C)c(Cl)c2)cc1
  VDR inh: 9%
Cc1cc(Cl)c(OCCn2ccnc2)c(Br)c1
  VDR inh: -9%
COc1ccc(CNC(=O)C2CCCN(c3ncnc4c3nc3n4CCCCC3)C2)cc1 (stereo unspecified)
  VDR inh: -20%
Cc1ccc(CS(=O)Cc2ccc(C(=O)NCC(C)c3ccccc3)o2)cc1 (stereo unspecified)
  VDR inh: -6%
N#Cc1ccc(CS(=O)(=O)c2nc3ccccc3s2)cc1
  VDR inh: ?
O=C(c1c(Cl)nc2sccn12)N(C(=O)c1c(Cl)nc2sccn12)c1ccc(Cl)cn1
  VDR inh: 13%
Cc1c(N=C/C=C2/N(C)c3ccccc3C2(C)C)c(=O)n(-c2ccccc2)n1C
  VDR inh: -7%&40%
Cc1ccc2c([N+](=O)[O-])cccc2n1
  VDR inh: -9%
Oc1nc(Nc2ccccc2)sc1/C=C1\C=Nc2ccccc21
  VDR inh: -8%
O=C(COC(=O)c1ccc2c(c1[N+](=O)[O-])C(=O)c1ccccc1C2=O)NC1CC1
  VDR inh: -18%
O=C(OCC(=O)N1CCOCC1)C(c1ccccc1)c1ccccc1
  VDR inh: -2%
CCOc1cccc2sc(N(CCN(CC)CC)C(=O)c3ccc(S(=O)(=O)N4CCCC4)cc3)nc12
  VDR inh: -22%
CCCn1nc(C(=O)NCC(C)(C)N2CCOCC2)c2ccccc2c1=O
  VDR inh: 24%
CC(C)(C)NS(=O)(=O)c1ccc(NC(=O)C2CC(=O)N(CCc3ccc(F)cc3)C2)cc1 (stereo unspecified)
  VDR inh: -5%
Cc1ccc(C)c(S(=O)(=O)N2C(=S)NC(=O)C2CC(C)C)c1 (stereo unspecified)
  VDR inh: 14%
NC(=O)[C@@H]1CCCN1Cc1nc(-c2ccc(C(F)(F)F)cc2)no1
  VDR inh: -13%
CCOC(=O)C1=C(C)N[C@@]2(O)c3ccccc3C(=O)[C@@]12O
  VDR inh: -17%
O=C(O)CCCC(=O)Nc1ccc(S(=O)(=O)Nc2nccs2)cc1
  VDR inh: 0%
O=S(=O)(c1ccc(Cl)cc1)N1CN(CC2CCCO2)c2nc3ccccc3nc21 (stereo unspecified)
  VDR inh: -9%
COC(=O)c1ccc(Cn2nc(-c3cc(C)ccc3C)ccc2=O)cc1
  VDR inh: -5%
Cc1ccc(OCC(O)Cn2c(N3CCOCC3)nc3c2c(=O)[nH]c(=O)n3C)cc1 (stereo unspecified)
  VDR inh: -17%
CCC1CCCCN1S(=O)(=O)c1ccc(NC(=O)c2snnc2C)cc1 (stereo unspecified)
  VDR inh: -4%

Cc1coc2cc3oc(=O)c(CC(=O)NCc4ccccc4)c(C)c3cc12
  VDR inh: 12%
NC(=O)C1CCC(NC(=O)OCc2ccccc2)CC1 (stereo unspecified)
  VDR inh: 2%
C/C(=N\NC(=O)c1ccccc1C)c1ccc(N2CCOCC2)cc1
  VDR inh: -2%
Cc1sc2ncnc(Sc3nnnn3-c3ccc(Cl)cc3)c2c1C
  VDR inh: -3%
Oc1c(Br)cc(Br)cc1C=Nc1cccnc1
  VDR inh: ?
CCC(c1nnnn1C1CCCC1)N1CCN(C(=O)c2ccco2)CC1 (stereo unspecified)
  VDR inh: -4%
CC1CCCN(Cc2c(O)ccc3c(=O)c(Oc4ccccc4Cl)c(C(F)(F)F)oc23)C1 (stereo unspecified)
  VDR inh: -4%
CCc1ccc(/C=N/Nc2nn[nH]n2)cc1
  VDR inh: 3%
CCN1C(=O)C(=O)N(CC(=O)N(C)CC(=O)Nc2ccccc2Cl)C1=O
  VDR inh: -15%
C(=N\Nc1nncn1/N=C/c1ccco1)/c1ccco1
  VDR inh: 18%
O=C1C=C(c2ccc(-c3ccccc3)c(F)c2)C[C@@H](c2ccc(Cl)cc2)C1
  VDR inh: 11%
O=C(Nc1cccc(F)c1)C1CCN(C(=O)c2ccccc2Cl)CC1
  VDR inh: -6%
Cc1cc(C(=O)Nc2cccc([N+](=O)[O-])c2C)cs1
  VDR inh: -4%
COc1ccc(Cl)cc1Nc1nc(C)nc2c1nnn2Cc1ccccc1
  VDR inh: -7%
O=C(Cn1c(=O)nc(-c2ccccc2)c2cc(Cl)ccc21)Nc1ccc(F)c(Cl)c1
  VDR inh: -15%
